Bioassay records: PubChem, National Center for Advancing Translational Sciences (NCATS)
gsp antag: qHTS for Antagonists of gsp, the Etiologic Mutation Responsible for Fibrous Dysplasia/McCune-Albright Syndrome: qHTS. gsp-mutant cells, cAMP HTRF, 30 min; control for the full effect not named in the record. Potency, µM (highest dose often 76.9 µM), without a hit: at the highest dose activity change, negative = inhibition, hits mostly inhibitors. 340,000 tested, 0.4% active; active = falling curve of any shape with a large fitted effect; inconclusive = falling curve, mostly with a smaller effect; inactive = flat or rising curve; cell line not stated here;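 note: intracellular cAMP measured with PDE inhibitor Ro 20-1724 present during compound exposure; potency is the fitted concentration of half-maximal effect; % is set by controls: 0 for no effect and ±100 for the full control effect; nearly all actives have a fitted effect of over 65% in size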
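Measurement of cellular cAMP by homogeneous time-resolved fluorescence following a 30 min compound exposure at 37C. The PDE inhibitor […] was present throughout; the assay buffer was DPBS with 0.05% BSA and 0.005% Tween 20.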
ClpP mod: qHTS Assay for Activators of ClpP. ATP-dependent Clp protease proteolytic subunit (Bacillus subtilis (strain 168)), P80244. purified B. subtilis ClpP, FRET peptide cleavage, 20 min. Potency, µM (top dose mostly 57.5 µM), for the others: at the top dose activity change, negative = active. 340,000 tested, 1.9% active. AID 651965, 2013; active = well fitted falling curve with a large enough effect; inconclusive = small, poorly fitted or top-dose-only effect; inactive = no such curve, though single readings can be large or run the other way; note: potency is the fitted concentration of half-maximal effect; the source files actives as falling curves though it sought activators and does not explain the sign; nearly all actives have a fitted effect of over 65% in size; many hits overshoot -100%
Target sequence (P80244 whole entry, looked up): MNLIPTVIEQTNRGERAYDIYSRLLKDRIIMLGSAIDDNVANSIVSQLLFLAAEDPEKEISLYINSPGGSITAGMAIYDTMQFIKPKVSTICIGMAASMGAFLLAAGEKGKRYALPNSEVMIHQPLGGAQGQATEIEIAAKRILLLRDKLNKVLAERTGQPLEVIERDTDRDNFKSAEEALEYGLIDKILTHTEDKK
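Buffer: 100 mM Tris/HCl pH8, 100 mM KCl, 0.05% low protease BSA, 2.5% glycerol, 0.01% Tween-20. ClpP 10 microg/mL final; 20 min RT; delta FRET normalized to ADEP and DMSO controls.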
TRPV1 potentiator: HTS Assay for Compounds that Act as Potentiators of the Vanilloid Receptor 1; 320,000 tested, 0.02% active; potentiation, % at 8.33 µM; Transient receptor potential cation channel subfamily V member 1 (Homo sapiens), Q8NER1; TRPV1-expressing cells, Fluo-8 calcium influx, capsaicin EC20 potentiation; host cell line not named in the record; control for the full effect not named in the record; active means potentiation above 80%; inconclusive means 30% to 80%; inactive means below 30%; note: 0% is about no effect
Target sequence (Q8NER1 whole entry, looked up): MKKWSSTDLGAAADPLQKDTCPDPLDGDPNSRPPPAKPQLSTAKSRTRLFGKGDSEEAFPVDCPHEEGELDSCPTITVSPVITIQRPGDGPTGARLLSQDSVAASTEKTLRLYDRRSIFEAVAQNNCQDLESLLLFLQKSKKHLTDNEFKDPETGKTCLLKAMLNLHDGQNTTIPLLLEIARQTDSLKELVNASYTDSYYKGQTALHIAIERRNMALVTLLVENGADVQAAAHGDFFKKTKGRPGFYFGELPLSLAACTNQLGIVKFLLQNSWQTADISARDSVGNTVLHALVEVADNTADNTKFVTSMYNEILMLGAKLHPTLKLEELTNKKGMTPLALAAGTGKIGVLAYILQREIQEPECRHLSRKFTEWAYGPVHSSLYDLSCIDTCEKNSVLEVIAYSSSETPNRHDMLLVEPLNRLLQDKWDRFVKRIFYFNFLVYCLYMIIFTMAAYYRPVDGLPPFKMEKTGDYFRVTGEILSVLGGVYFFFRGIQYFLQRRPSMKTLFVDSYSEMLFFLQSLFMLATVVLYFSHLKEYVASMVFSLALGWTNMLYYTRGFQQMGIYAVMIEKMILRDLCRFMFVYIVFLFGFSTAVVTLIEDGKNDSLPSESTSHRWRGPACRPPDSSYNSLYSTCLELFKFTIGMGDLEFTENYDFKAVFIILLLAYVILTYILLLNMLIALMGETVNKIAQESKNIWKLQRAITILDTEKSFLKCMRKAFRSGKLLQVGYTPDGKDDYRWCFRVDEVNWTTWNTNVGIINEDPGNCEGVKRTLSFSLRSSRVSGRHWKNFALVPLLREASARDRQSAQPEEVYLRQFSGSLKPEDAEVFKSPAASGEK
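TRPV1-expressing cells were cultured overnight at 35.5C and loaded with Fluo-8 calcium dye for 40 to 90 min at room temperature. After a 10 s baseline, compound was added and calcium influx was read kinetically for 3 min (ex 480/em 520 nm).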
CtBP-E1A blk: qHTS Assay for Inhibitors of the CtBP/E1A Interaction. AlphaScreen GST-E1A/His-CtBP binding, 1536-well; active compounds read low; control for the full effect not named in the record. activity change, % (concentration not given with the values). 340,000 tested, 0.49% active. AID 651724, 2012; in the data active means activity change below about -65%; inconclusive means about -30% to -65%; inactive means above about -30%; note: % is set by controls: 0 for no effect and ±100 for the full control effect
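Homogeneous bead-based format: GST-tagged E1A captured on glutathione donor beads, His-tagged CtBP on nickel acceptor beads; compounds precede bead addition by 2 h at 37 °C.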
Menin MLL FP FL: qHTS Assay for Inhibitors Targeting the Menin-MLL Interaction in MLL Related Leukemias: Competition With Fluorescein Labeled MLL-derived Peptide. Fluorescence polarization, fluorescein-MLL peptide displacement from menin. FP activity change, % at 61.4 µM. 290,000 tested, under 10 active. AID 1766, 2009; inconclusive = falling polarisation curve, or a change in total fluorescence; inactive = total fluorescence flat and polarisation flat or rising; no compound was filed as active; the % refers to the polarisation; negative = inhibition;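 note: % of control where 0% means no effect; inhibitors lower the polarisation; unlabelled MLL peptide was the positive control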
gsp ag: qHTS for Agonist of gsp, the Etiologic Mutation Responsible for Fibrous Dysplasia/McCune-Albright Syndrome: qHTS; 340,000 tested, 0.13% active; Potency, µM (series often up to 76.9 µM), for inactives: top-dose activation (cAMP increase), hits mostly activators; gsp mutant cells, cAMP HTRF, 30 min; control for the full effect not named in the record; AID 624287, 2012; active = well fitted activation curve with a large enough effect; inconclusive = small, poorly fitted or top-dose-only effect, or another doubt; inactive = no such curve, though single readings can be large or run the other way; cell line not stated here;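 note: phosphodiesterase inhibitor Ro 20-1724 added with compounds to block cAMP breakdown; potency is the fitted concentration of half-maximal effect; nearly all actives have a fitted effect of over 60% in size; about a fifth of the inactives were tested at one dose only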
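Cells stably selected in G418 were plated at 2000/well, grown 16-24 hr, then given compounds in DMSO with the PDE inhibitor […] (300 uM solution added) for 30 min at 37C; cAMP was read by HTRF.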
Sfp inh: qHTS Assay for Inhibitors of Bacillus subtilis Sfp phosphopantetheinyl transferase (PPTase) | Potency, µM, for inactives: max response, negative = inhibition, actives largely listed as inhibitors | Biochemical Sfp PPTase activity, qHTS | 310,000 tested, 3.5% active; active = well fitted inhibition curve with a large enough effect; inconclusive = small, poorly fitted or top-dose-only effect, or another doubt; inactive = no such curve, though single readings can be large or run the other way;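 note: the enzyme is Sfp with the accession as filed and its product quenches rhodamine fluorescence; potency is the fitted concentration of half-maximal effect; 0% = enzyme reaction without inhibitor and -100% = no enzyme wells; top concentration of the series not given in the record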
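Sfp 15 nM + cpd, 15 min RT; start w/ rhodamine-CoA 5 uM, BHQ-2-YbbR 12.5 uM (final); 50 mM Hepes pH 7.6, 10 mM MgCl2, 0.01% NP-40, 0.01% BSA; read 525/598 nm at 0 and 30 min.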
Numbers without * were called inactive; ? = inconclusive; · = not tested or not shown; [ ] = remark or other dose.

SMILES | gsp antag | ClpP mod | TRPV1 potentiator | CtBP-E1A blk | Menin MLL FP FL | gsp ag | Sfp inh
O=C(COC(=O)[C@H](Cc1c[nH]c2ccccc12)NC(=O)c1ccc(Cl)cc1)Nc1ccc2c(c1)OCO2 | ? | -5.0% | 4 | -5 | -0.5 | 0% | 26%
O=C(c1cc2ccccc2oc1=O)N(Cc1cccs1)CC1CCCO1 (stereo not given) | -4% | · | -2 | 0 | -2.1 | 5% | 20%
Cc1nn(C)c(Oc2ccccc2)c1CCNC(=O)CC(C)C | -2% | · | 4 | 7 | 1.7 | 1%[15.4 µM] | 3%
COC(=O)CN1C(=O)C(O)=C(C(C)=O)C1c1ccc([N+](=O)[O-])cc1 (stereo not given) | 5% | -1.2% | -1 | -10 | -0.3 | -6% | -10%
O=C(NN=C1CCC(c2ccccc2)CC1)c1ccccc1-n1cccc1 (stereo not given) | 17% | 32µM* | 3 | -6 | -0.2 | -1%[15.4 µM] | 4%
COc1cc2c(cc1OC)CN(Cc1ccc(F)cc1)CC2 | 11% | · | -4 | -1 | -0.7 | 40%[15.4 µM] | -14%
O=C1Nc2ccccc2N(O)N1c1ccc(S(=O)(=O)Nc2ccccn2)cc1 | 12% | -12% | 18 | · | -4.8 | -1% | 9%
Cc1cc2cc(CNC(=O)C3CCCC3)ccc2n1C | 7% | -11% | -20 | -1 | ? | 12% | -25%
CCCOCC1CC(CCc2nc(=S)[nH][nH]2)C(=O)O1 (stereo not given) | 9% | 1.0% | 10 | -2 | -0.8 | 3%[15.4 µM] | 56µM*
COc1cccc(COC(=O)c2cc(=O)[nH]c3ccc(S(=O)(=O)N4CCOCC4)cc23)c1OC | 11% | -9.5% | 4 | -1 | · | -1% | ·
Cc1onc(-c2ccccc2)c1C(=O)NCC1COc2ccccc2O1 (stereo not given) | 4% | 0.0% | 11 | 10 | 2.4 | 13% | 6%
C[C@@H]1CN([C@@H](C)CO)C(=O)CCCn2nncc2CO[C@@H]1CN(C)S(=O)(=O)c1cn(C)cn1 | · | 0.4% | · | -24 | · | -4% | ·
COc1ccccc1CC(=O)Nc1sc2c(c1C(N)=O)CCCC2 | -8% | · | 1 | -8 | 3.5 | 0%[15.4 µM] | 1%
CCOC(=O)C1(Cc2ccccc2C)CCCN(C(=O)c2ccccn2)C1 (stereo not given) | 9% | · | 3 | 1 | -3.0 | -40%[inhibitor] | -12%
COc1ccc(CCn2c(O)cc3nn(-c4nc5ccccc5s4)c(=O)c-3c2C)cc1 | 7% | · | ? | 2 | ? | -11%[15.4 µM] | -4%

Pulled by structure from the entries so far (3):
SMILES | gsp antag | ClpP mod | TRPV1 potentiator | CtBP-E1A blk | Menin MLL FP FL | gsp ag | Sfp inh
O=C1Nc2ccccc2N(O)N1c1ccc(S(=O)(=O)Nc2ccccn2)cc1 | 12% | -12% | 18 | · | -4.8 | -1% | 9%
C[C@@H]1CN([C@@H](C)CO)C(=O)CCCn2nncc2CO[C@@H]1CN(C)S(=O)(=O)c1cn(C)cn1 | · | 0.4% | · | -24 | · | -4% | ·
Cc1cc2cc(CNC(=O)C3CCCC3)ccc2n1C | 7% | -11% | -20 | -1 | ? | 12% | -25%

Later entries
SMILES | gsp antag | ClpP mod | TRPV1 potentiator | CtBP-E1A blk | Menin MLL FP FL | gsp ag | Sfp inh
COc1ccccc1N1CCN(c2ncc(C(=O)N3CCN(c4cccc(Cl)c4)CC3)c3ccccc23)CC1 | -2% | · | 14 | -1 | 0.0 | -15% | 10%
Cc1cccc(NC(=S)N2CCN(C(=O)C3CCCO3)CC2)c1 (stereo not given) | 10% | 0.4% | 8 | 2 | 0.9 | 8% | -5%
Cc1ccc(/C=C2\SC(=S)N(/N=C/c3cc([N+](=O)[O-])ccc3O)C2=O)o1 | -21% | 1.0% | -7 | -93* | ? | 7% | 25µM*
CC(C)CC(=O)N1CCN(Cc2cccc(F)c2)CC1 | -2% | -1.7% | 6 | 1 | 4.1 | 0% | -17%
Cc1ccc(NC(=O)CSc2nnc(NC(=O)C3CC3)s2)cc1 | -10% | -0.3% | -9 | -2 | -7.9 | 11% | 13%
CCCOc1ccc(Cc2c(COCC)[nH]c(=S)[nH]c2=O)cc1 | 6% | · | 18 | 2 | 0.2 | 10%[15.4 µM] | 6%
Clc1ccc(CSc2nnc(Cn3cnc4ccccc43)o2)cc1 | 20% | 1.3% | 5 | 24 | -2.0 | -13% | -17%
Cc1ccc(S(=O)(=O)CC(=O)Nc2ccc3nc(C)sc3c2)cc1 | -4% | 1.2% | -2 | -1 | 4.0 | -70%[inhibitor] | 17%
O=C(CNS(=O)(=O)c1ccc(Cl)cc1)N1CCN(c2ccc(F)cc2)CC1 | 6% | 0.5% | · | 2 | · | -1% | ·
C=CCn1c(O)c(N=Nc2ccccc2C)c2ccccc21 | 18% | · | 1 | 7 | 0.6 | -7% | 25µM*
OCCN(CCO)c1ccc(C(c2ccccc2Cl)c2ccc(N(CCO)CCO)cc2Cl)c(Cl)c1 | ? | 1.7% | 7 | 2 | 4.0 | -24% | -10%
C[C@@H]1CCCCO[C@@H](CN(C)C(=O)Cc2ccccc2)[C@@H](C)CN([C@H](C)CO)C(=O)c2cc(NC(=O)C3CCCCC3)ccc2O1 | · | 1.4% | · | 3 | · | -11% | ·
CN1c2ccccc2Oc2nnc(N3CCN(Cc4ccccc4)CC3)cc21 | -15% | · | -18 | -21 | 0.4 | 8% | 5%
CS(=O)(=O)N(Cc1ccccc1Cl)c1ccc(C(=O)N2CCCC2)cc1 | -11% | · | -3 | -1 | -10 | -10% | 9%
O=C(c1ccc(Cl)cc1)N1CCOc2ccccc21 | 0% | -3.8% | ? | -9 | -2.3 | 6% | -22%
Cc1ccc(-c2noc(CCC(=O)Nc3cccc(C#N)c3)n2)cc1 | -28% | 5.3% | 8 | 9 | 2.1 | ? | 29%
COC(=O)C1=C(COc2ccccc2)NC(=O)NC1c1ccc2ccccc2c1 (stereo not given) | 11% | 3.9% | · | -1 | · | -29% | ·
Cc1ccc(-c2csc(NC(=O)CCNC(=O)c3ccc(Cl)cc3)n2)cc1 | 7% | · | 11 | 4 | -1.9 | 27% | 12%
COCCn1c(=NC(=O)c2sc3ccccc3c2Cl)sc2cc(S(N)(=O)=O)ccc21 | -14% | 22µM* | -12 | -16 | 8.3 | 10%[15.4 µM] | -23%
Nc1nc(NCCOCCO)nc(Nc2cccc(F)c2)c1[N+](=O)[O-] | 16% | 0.6% | 2 | · | 3.8 | 0% | 1%
O=C(O)CCCCCN1C(=O)C(O)=C(C(=O)/C=C/c2ccccc2)C1c1ccc2c(c1)OCO2 (stereo not given) | -17% | · | -7 | -6 | -2.8 | 21% | 21%
CC(NC(=O)COC(=O)c1ccc2c(=O)n3c(nc2c1)CCCCC3)c1ccccc1 (stereo not given) | -29% | -10% | 2 | -4 | · | -8% | ·
COc1ccc(CNC(=O)COC(=O)c2ccc3c(c2)OCCO3)cc1 | 8% | -2.4% | -2 | 3 | 0.1 | 8% | 1%
Oc1ccccc1-c1nc2c3ccccc3c3ccccc3c2[nH]1 | -1% | 3.8% | 8 | 4 | 1.2 | 22% | 6%
Cc1ccc(C(=O)N/C(=C/c2cccnc2)C(=O)NCc2ccco2)cc1 | 9% | 0.1% | 13 | 15 | -1.0 | 4% | 1%
N=C1SC(CC(=O)Nc2ccc([N+](=O)[O-])cc2)C(=O)N1c1ccccc1 (stereo not given) | -17% | · | · | -11 | 1.1 | -5%[15.4 µM] | 13%
O=C(c1ccc2c(=O)n(Cc3ccccc3Cl)c(=S)[nH]c2c1)N1CCCC1 | -10% | · | 10 | 9 | · | -2% | 16%
CCCOc1ccccc1-c1nc(SCCC(=O)O)n[nH]1 | -6% | -11% | -2 | 7 | 2.7 | -24% | 15%
CC(C)NC(=O)C1CCN(C2CCN(Cc3nc4ccccc4s3)CC2)CC1 | -14% | 1.8% | -8 | 8 | 1.2 | -13% | -5%
O=C(OCc1cccc([N+](=O)[O-])c1)c1ccncc1 | 3% | 0.3% | -8 | 1 | 1.5 | 0% | 11%
O=C(Nc1ccccn1)C(NS(=O)(=O)c1cccc2nsnc12)c1ccccc1 (stereo not given) | -9% | -6.8% | 2 | -1 | 0.0 | 0% | -27%
O=C(COc1ccc(Cl)cc1)Nc1ccc(N2CCN(C(=O)c3ccco3)CC2)cc1 | ? | -1.2% | -4 | -5 | -1.6 | 4% | 21%

Structures from the list above that have an NH in an aromatic ring, in the order listed:
SMILES | gsp antag | ClpP mod | TRPV1 potentiator | CtBP-E1A blk | Menin MLL FP FL | gsp ag | Sfp inh
O=C(COC(=O)[C@H](Cc1c[nH]c2ccccc12)NC(=O)c1ccc(Cl)cc1)Nc1ccc2c(c1)OCO2 | ? | -5.0% | 4 | -5 | -0.5 | 0% | 26%
CCCOCC1CC(CCc2nc(=S)[nH][nH]2)C(=O)O1 (stereo not given) | 9% | 1.0% | 10 | -2 | -0.8 | 3%[15.4 µM] | 56µM*
COc1cccc(COC(=O)c2cc(=O)[nH]c3ccc(S(=O)(=O)N4CCOCC4)cc23)c1OC | 11% | -9.5% | 4 | -1 | · | -1% | ·
CCCOc1ccc(Cc2c(COCC)[nH]c(=S)[nH]c2=O)cc1 | 6% | · | 18 | 2 | 0.2 | 10%[15.4 µM] | 6%
Oc1ccccc1-c1nc2c3ccccc3c3ccccc3c2[nH]1 | -1% | 3.8% | 8 | 4 | 1.2 | 22% | 6%
O=C(c1ccc2c(=O)n(Cc3ccccc3Cl)c(=S)[nH]c2c1)N1CCCC1 | -10% | · | 10 | 9 | · | -2% | 16%
CCCOc1ccccc1-c1nc(SCCC(=O)O)n[nH]1 | -6% | -11% | -2 | 7 | 2.7 | -24% | 15%

Rows are unselected; any-hit rate near 5.3%.
